# miR-21 reporter – miR-21 reporter, rising signal; HeLa miR-21 FLuc reporter, luciferase, 48 h; Potency, µM (doses to about 38.3 µM), inactives show at the top dose reporter change, positive = more light; 340,000 tested, under 10 active; AID 2288; active = well fitted rising curve with a large enough effect; inconclusive = small, poorly fitted or top-dose-only effect; inactive = no such curve, though single readings can be large or run the other way;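 further: % of control where 0% means no effect; miR-21 action dims this reporter so a rising signal means less miR-21 action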
#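 HeLa miR-21-FLuc reporter line, endogenous miR-21; 2000 cells/well in DMEM/10% FBS; compound titration up to ~40uM final, 48 h, 37 degree Celsius; luciferase detection reagent, 15 min lysis, CCD luminescence.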
# Rango complex inh – prevents formation of the Rango-importin beta complex. Rango CFP/YFP FRET sensor + importin beta, 45 min. AID 540263. Q14974. 340,000 compounds, 0.031% hits. Potency, µM (titrated, usually from 92.2 µM), for inactives: top-dose inhibition of complex formation; active = rising FRET ratio curve, often small or poorly fitted; inconclusive = mostly compound fluorescence or quenching in the first reads; inactive = flat curves in all reads;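 further: potency means the concentration at half of the fitted maximal effect; 0% = DMSO wells and 100% = buffer wells lacking importin beta; nearly all actives have a fitted effect of over 15% in size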
#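 FRET biosensor (snurportin 1 IBB flanked by EYFP and cerulean), 50 nM, with compound 5 min, then 0.125 microM importin beta in PBS, 1 mM DTT, 0.02% Tween-20, 0.1% BSA. CFP/YFP ratio read after 45 min at room temperature; pre-read flags interference.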
# Rango dissoc inh – inhibition of RanGTP-driven Rango-importin beta dissociation; O95149+P62826; Biochemical FRET Rango-importin beta, RanGTP-induced dissociation; Potency, µM (top dose mostly 46.1 µM), without a hit: at the top dose activity change, negative = inhibition; 340,000 compounds, 0.071% hits; AID 540253; active means falling FRET ratio curve, often poorly fitted, with flat reads before Ran was added; inconclusive means other falling curves, or compound fluorescence or quenching; inactive means flat or rising ratio curve;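 further: potency means the concentration at half of the fitted maximal effect; % of control where 0% means no effect; nearly all actives have a fitted effect of over 45% in size; -100% = wells without RanGTP and RCC1; the record marks most hits as doubtful in a second field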
#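 Compounds preincubate 5 min with complex of recombinant Rango and importin beta in PBS with 1 mM DTT. Ran (0.6 uM) loaded with 2 mM GTP plus 0.2 uM RCC1 starts dissociation; FRET is recorded 45 min later.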
# GLA inh pH 4.5 – blocks human alpha-galactosidase A at pH 4.5 | 230,000 tested, under 10 active | P06280 | activity change, negative = inhibition, % at 105 µM | purified enzyme, 4-MU-alpha-Gal fluorescence, pH 4.5; inconclusive = small, poorly fitted or top-dose-only inhibition, or a rising curve; inactive = flat fitted curve, though single readings scatter; no compound was filed as active;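 further: 0% = full activity with enzyme and -100% = basal without enzyme; dose as in the result columns while the protocol names 77 µM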
# Target sequence (P06280 whole entry, looked up): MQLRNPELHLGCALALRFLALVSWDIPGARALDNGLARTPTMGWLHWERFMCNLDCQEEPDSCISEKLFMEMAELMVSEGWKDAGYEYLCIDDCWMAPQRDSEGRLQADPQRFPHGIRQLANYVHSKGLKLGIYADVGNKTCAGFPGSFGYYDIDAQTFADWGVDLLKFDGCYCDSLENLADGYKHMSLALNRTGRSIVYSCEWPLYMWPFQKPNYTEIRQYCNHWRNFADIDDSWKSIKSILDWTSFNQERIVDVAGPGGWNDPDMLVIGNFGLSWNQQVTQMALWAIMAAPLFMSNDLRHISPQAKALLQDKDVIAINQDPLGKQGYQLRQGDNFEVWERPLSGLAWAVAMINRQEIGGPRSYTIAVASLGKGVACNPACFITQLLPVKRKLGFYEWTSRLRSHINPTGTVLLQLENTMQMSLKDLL
# * marks the source's active call; other numbers are inactive results; ? = inconclusive; / = not tested or not shown; & = joins results of further samples.
# Each structure is followed by: miR-21 reporter, Rango complex inh, Rango dissoc inh, GLA inh pH 4.5
Cc1cccc(CN2CCc3c(OCC(=O)NCc4ccco4)cccc3C2=O)c1
 : -15%, 3.6%, 2%, 1
Cc1ccc(S(=O)(=O)N2CCC3(CC2)OCCO3)cc1
 : -2%, 2.0%, 6%, /
COc1cccc(CNCCNC(=O)c2nonc2N)c1
 : -5%&-5%, 4.5%, 8%, 4
C=CCNC(=S)Nc1ccc(Cl)cc1
 : 6%, 2.8%, -1%, 10
COc1cc(OC)c2c3c(c(C4CCCCC4)nc2c1)CCCC3
 : /, 6.8%, -2%, /
N#CCCN(Cc1cccnc1)C(=O)Nc1ccccc1
 : -4%, -1.9%, -3%, -6
CNC(=O)COC(=O)c1cccc(S(=O)(=O)N2CCN(c3ccc(F)cc3)CC2)c1
 : 4%, 4.4%, 1%, -3
COc1ccc(C2c3cc(OC)c(OC)cc3CCN2S(C)(=O)=O)cc1OC (centres undefined)
 : 1%, 1.0%, -2%, 3
c1cncc(N=c2scc(-c3cccc4ccccc34)n2CCCn2ccnc2)c1
 : 6%, 0.8%, 11%, -3
N#Cc1c(NC(=O)C2CCCO2)sc2c1CCCCCC2 (centres undefined)
 : -50%, -5.6%, 1%, -2
COc1ccccc1CCc1nnc(CCC(=O)NC(C)Cc2ccsc2)o1 (centres undefined)
 : -4%, 0.6%, 0%, -17
CSc1nnc(-c2ccccc2N=Cc2c(C)[nH]n(-c3ccccc3)c2=O)c(=O)[nH]1
 : -4%, 0.4%, 9%, -1
CCOc1cccc(-c2nnc3sc(COc4ccc(Cl)cc4)nn23)c1
 : -7%, -2.8%, ?, 1
Cc1ccc(-c2cc(C(=O)N/N=C/c3ccccc3)n[nH]2)o1
 : -11%, 1.3%, -3%, /
N/C(=N\OC(=O)c1ccc(Cl)c([N+](=O)[O-])c1)c1ccccc1
 : -5%, 0.1%, 7%, /
Cc1ccc2nc(NC(=O)c3ccc(Cn4cc(Cl)cn4)o3)sc2c1
 : -32%, -0.1%, 3%, -5
COc1ccc(NC(=O)CC2Oc3ccccc3NC2=O)cc1 (centres undefined)
 : -13%, 1.9%, -16%, -7
Cc1nc2ccc(S(=O)(=O)NC(C(=O)N3CCCC3)C(C)C)cc2s1 (centres undefined)
 : -10%, -0.4%, 12%, -6
O=C(N/N=C/c1ccc[nH]1)c1ccccc1[N+](=O)[O-]
 : -2%, 1.7%, 10%, -4
COc1ccc(NC(=O)c2ccco2)c(OC)c1
 : -41%, -2.4%, -9%, 8
O=C(c1c(F)cccc1Cl)N1CCN(S(=O)(=O)c2ccc3c(c2)OCCCO3)CC1
 : -14%, -0.5%, -18%, /
CCOC(=O)c1ccc(-n2c(CN(CC)CC)nc3ccc([N+](=O)[O-])cc3c2=O)cc1
 : -7%, 0.4%, 13%, -11
COc1ccc(C(=O)NC(C)CCc2ccccc2)cc1 (centres undefined)
 : -31%, -1.1%, -1%, /
N#Cc1cn(-c2ccccc2)nc1C(=O)c1ccccc1
 : -2%, 2.2%, -9%, -9
CCOC(=O)c1c(C)[nH]c(C)c1S(=O)(=O)NCC1CCN(Cc2ccc(C)cc2)CC1
 : -15%, 8.0%, ?, /
C=CCNc1nc(Nc2ccc(OC)cc2)nc(OC)n1
 : -33%, 1.2%, 0%, -7
CCOC(=O)Cc1cc(=O)n2[nH]c(-c3ccccc3)cc2n1
 : -15%, -0.2%, 26%, -6
COC1=CC(=O)c2c(ccc3ncnc(N)c23)C1=O
 : /, 0.4%, -7%, /
CN(C)S(=O)(=O)c1ccc(Oc2ccccc2)cc1
 : -11%, -0.6%, 0%, -1
COC(=O)CC1COc2ccccc2N1C(=O)c1ccc(Cl)cc1 (centres undefined)
 : -6%, 0.4%, -5%, -26
CCc1c(C)nc(SCC(=O)Nc2nc(-c3ccc(OC)cc3)cs2)[nH]c1=O
 : 1%, 2.4%, 10%, -3
O=C(CCCOc1ccccc1)N1CCN(S(=O)(=O)c2cccs2)CC1
 : -8%, -1.9%, 0%, 0
Cc1cccc(/C=N\Nc2nnc(-c3ccccc3)c(=O)[nH]2)c1
 : -5%, 1.3%, -1%, -2
COc1ccccc1NC(=S)NNC(=O)c1ccccc1Br
 : -64%, -1.4%, 19%, 3
COc1cc(C(=O)NCc2ccc(C(=O)NCC(OC)OC)cc2)cc(OC)c1OC
 : 1%, -5.9%, 1%, -1
Cc1ccc(NC(=O)C(c2ccccc2)C2CCCC2)cc1 (centres undefined)
 : 2%, 1.6%, -4%, -10
CC(C)[C@H](NC(=O)N1CCn2c1nc1ccccc12)C(=O)NCc1ccc(F)cc1
 : 14%, 1.2%, 0%, /
Cc1ccccc1CCNC(=O)Cn1nc(C)c2c(C)n(-c3ccccc3)nc2c1=O
 : 2%, -3.4%, -10%, /
O=C(COC(=O)c1ccc2c(c1)OCCO2)Nc1cc(Cl)ccc1Cl
 : 1%, ?, -1%, 2
Cc1ccc(F)cc1NC(=O)Cc1nn(C)c(=O)c2ccccc12
 : 8%, -3.1%, 12%, 3
COc1ccc(NC2CCCN(C(=O)c3ccc(CSC)o3)C2)cc1OC (centres undefined)
 : -2%, 4.4%, 2%, /
Cc1ccsc1C(=O)NCc1ccc(F)cc1
 : -4%, -0.2%, 30%, /
O=C(COC(=O)Cc1cccc(C(F)(F)F)c1)NCc1ccco1
 : /, -2.6%, 20%, /
COc1ccc(OC)c(S(=O)(=O)N2CCC(C(=O)Nc3cc(C)ccc3C)CC2)c1
 : 0%, ?, -7%, 6
Cc1cccc(OCC(O)CN2CCOCC2)c1 (centres undefined)
 : 0%, 5.1%, -23%, /
C#CCN1C=CC(=O)[C@@H](OC(=O)Nc2ccc(Cl)cc2)[C@H]1c1ccccc1Br
 : /, -0.8%, -11%, /
O=C(C1CC1)N1CCc2cc(S(=O)(=O)N3CCOCC3)ccc21
 : -7%, 0.3%, -19%, -5
C=CCN1C(=O)c2ccc(C(=O)N(C)CC(=O)Nc3ccc(OCC)c(OCC)c3)cc2C1=O
 : /, 3.1%, -20%, /
O=C(Nc1ccc(NC(=O)C2CC2)nc1)c1cnccn1
 : -10%, ?, 16%, -3
Cc1cc2ncn(-c3ncnc4sc(C)c(C)c34)c2cc1C
 : -24%, ?, -9%, -8
O=C(NCC1CCCO1)c1onc(CSc2ccc(F)c(F)c2)c1C(=O)O (centres undefined)
 : 0%, -2.7%, ?, 14
CCOC(=O)/C=C/COc1ccccc1[N+](=O)[O-]
 : -35%, -0.9%, -6%, -3
CCCc1cc(=O)oc2cc(C)cc(OCC(=O)Nc3cccnc3)c12
 : 9%, -1.0%, 10%, /
CN(Cc1ccccc1)C(=O)COc1ccc(N(C)S(=O)(=O)c2ccc(F)cc2)cc1
 : 6%, -0.5%, 8%, -3
N#Cc1ccc(COC(=O)CC(NC(N)=O)c2ccc(Cl)cc2)cc1 (centres undefined)
 : 2%, -3.8%, 26%, /
COCCNC(=O)/C(C#N)=C/c1c(N2CCN(C)CC2)nc2c(C)cccn2c1=O
 : -6%, ?, ?, /
O=S(=O)(/N=C(/Nc1cccc2ccccc12)c1ccc(F)cc1)c1ccccc1
 : -10%, -4.8%, 16%, /
COC(=O)c1ccc(OC)c(CSc2nnc(-c3ccc(C(C)(C)C)cc3)o2)c1
 : -5%, -4.6%, -6%, -6
C=C(C)COc1ccc(-c2[nH]ncc2Oc2cccc(OC)c2)c(O)c1
 : -5%, 1.0%, -14%, -9
CC1=C(C(=O)OC(C)C)C(c2ccc(Br)s2)NC(=O)N1C (centres undefined)
 : -7%, -1.3%, -6%, 2

# Remaining list, next part.
# Each structure is followed by: miR-21 reporter, Rango complex inh, Rango dissoc inh, GLA inh pH 4.5
CC(C)(C)n1nc2c(c1NC(=O)c1ccc(F)c(F)c1)CS(=O)(=O)C2
 : -5%, 2.5%, 1%, /
CCN(CC(=O)Nc1ccccc1C(F)(F)F)C(=O)Cc1ccccc1
 : -7%, 0.5%, -2%, /
COc1cc(/C=C2\SC(=O)N(CC(=O)Nc3ccccc3F)C2=O)cc(Cl)c1O
 : -5%, ?, ?, /
O=C(/C=C/c1ccccc1)NC(=S)Nc1ccccc1C(=O)NC1CCCCC1
 : -3%, -1.3%, 2%, 3
CNC(=O)c1c(NC(=O)c2cccc(N3C(=O)CCC3=O)c2)sc2c1CCC2
 : 2%, -0.5%, 6%, 0
Cc1ccc(CSc2nnc(-c3ccco3)n2N)cc1
 : -9%, -0.4%, 10%, -4
C/C(=N\NC(=S)NCC(C)(C)C)c1cc(F)cc(F)c1O
 : -5%, 2.4%, 0%, -8
CCOC(=O)c1ccc2c(c1)nc(COc1ccccc1C#N)n2CC
 : 1%, /, /, -6
O=C(COC(=O)c1ccc(Cl)cc1[N+](=O)[O-])NNC(=O)c1cccs1
 : /, 2.3%, ?, /
CN(Cc1ccccc1)C(=O)c1cccc(NC(=O)Cc2ccc(NC(=O)C3CCCN(C(=O)c4ccccc4)C3)cc2)c1 (centres undefined)
 : /, -1.1%, 1%, /
CC(C)(C)NC(=O)COC(=O)c1ccccc1Nc1ccc(SC(F)F)cc1
 : -1%, -0.2%, 32%, -20
O=C(NCCCN1CCOCC1)c1ccc(CNS(=O)(=O)c2ccc(F)cc2)cc1
 : -4%, 1.7%, -15%, -7
O=C(c1ccco1)N1CCCC(c2ccccc2)C1 (centres undefined)
 : -13%, -0.7%, 7%, -14
COc1ccccc1CNC(=O)C1CC(=O)N(c2ccc(C)c(C)c2)C1 (centres undefined)
 : -6%, -3.0%, -4%, -6
Cn1ncc(C(=O)N=S(C)(=O)c2ccccc2)c1[N+](=O)[O-] (centres undefined)
 : 1%, -0.7%, 9%, 1
Cc1nnc(C)n1N1C(=O)c2cccc3cccc(c23)C1=O
 : 0%, 6.0%, 14%, 7
C/C(CCC(C)C)=N\NC(=S)NCc1ccccc1
 : 11%, 1.8%, 29%, 1
Cc1cc([N+](=O)[O-])cc([N+](=O)[O-])c1NCC(C)C
 : -2%, -3.9%, ?, -18
Cc1ccc(S(=O)(=O)Nc2cc3c(cc2C#N)OCO3)cc1C(N)=O
 : 2%, 0.4%, -11%, /
O=C1Nc2c(c(=O)[nH]c(=O)n2-c2ccc(F)cc2)C1(NS(=O)(=O)c1ccccc1)C(F)(F)F (centres undefined)
 : 1%, 0.8%, 0%, 0
CCO[C@@H]1OC(C(=O)O)=C[C@H](c2cn(C(C)=O)c3ccccc23)[C@H]1CCCO
 : /, -1.0%, 13%, /
COc1ccc(CCNC(=O)c2cccc(NC(=O)CC3SC(N4CCCCC4)=NC3=O)c2)cc1OC (centres undefined)
 : 1%, 1.8%, -12%, /
COc1ccccc1-n1c(CNC(=O)c2ccc(S(=O)(=O)N3CCCCC3)cc2)n[nH]c1=S
 : -8%, 3.0%, -14%, /
COc1ccc(OCCN2CCOCC2)cc1
 : -4%, ?, 3%, /
CC(C)(C)OC(=O)N1CCC(c2c(C(=O)O)cnn2-c2ccccc2)CC1
 : -4%, -0.2%, ?, 0
c1ccc(Sc2ncnc3c2oc2ccccc23)cc1
 : -53%, 3.8%, -1%, 0
O=C(NCc1ccc2[nH]c3c(c2c1)CCCC3)c1ccc(S(=O)(=O)N2CCOCC2)cc1
 : -1%, ?, -10%, -2
COc1ccccc1CNC(=S)Nc1ccc(F)cc1
 : -3%, -2.6%, -6%, /
CCN1CCN(CCNC(=O)c2cn(C(C)c3ccccc3F)nn2)CC1 (centres undefined)
 : -7%, -5.5%, 1%, -1
CC(=O)C1C(=O)c2c(cccc2[N+](=O)[O-])C1=Nc1ccccc1C (centres undefined)
 : -16%, /, /, -3
CS(=O)(=O)N(CC(=O)NCCSC1CCCCC1)c1ccccc1
 : -2%, -4.4%, -19%, -2
Cc1ccc(CNC(=O)c2ccc(NS(=O)(=O)c3c(C)noc3C)cc2)cc1
 : -8%, 5.6%, -1%, -4

# Structures listed so far containing bromine (3):
# Each structure is followed by: miR-21 reporter, Rango complex inh, Rango dissoc inh, GLA inh pH 4.5
COc1ccccc1NC(=S)NNC(=O)c1ccccc1Br
 : -64%, -1.4%, 19%, 3
C#CCN1C=CC(=O)[C@@H](OC(=O)Nc2ccc(Cl)cc2)[C@H]1c1ccccc1Br
 : /, -0.8%, -11%, /
CC1=C(C(=O)OC(C)C)C(c2ccc(Br)s2)NC(=O)N1C (centres undefined)
 : -7%, -1.3%, -6%, 2

# This is a subset. The share of hits here may be higher or lower than overall.
